Source: PubChem
Sa growth 42C: S. aureus growth inhibition at 42 and 30 °C, primary screen, LtaS inhibitor project, RN4220, two temperatures; OD600, 20 h, 42 °C; active compounds read low; relative growth, % (concentration not given with the values); 170,000 compounds, 0.53% hits; AID 720641, 2013;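 active = growth at 42 °C up to 50% and 20 or more points under that at 30 °C, or under 10% at both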;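 also: 300 nL library stock went into each well; scaled to the means of positive and negative controls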
GIV-Gai inh: inhibitors of GIV peptide binding to Galpha-i3, primary screen, biochemical, fluorescence polarization, FITC-GIV GBA peptide, rat Galphai3. Guanine nucleotide-binding protein G(i) subunit alpha-3 (Rattus norvegicus), P08753. 90 min; active compounds read low; scaled: aluminum fluoride 0%, vehicle 100%. percent of control (FP), % (concentration not given with the values). 210,000 compounds, 0.42% hits. AID 1224905, 2016;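 active = replicate mean at 85% of control or lower, very high polarization wells dropped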;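 also: wells of about 15 µL received 100 nL stock; the first replicate is given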
Target sequence (P08753 whole entry, looked up): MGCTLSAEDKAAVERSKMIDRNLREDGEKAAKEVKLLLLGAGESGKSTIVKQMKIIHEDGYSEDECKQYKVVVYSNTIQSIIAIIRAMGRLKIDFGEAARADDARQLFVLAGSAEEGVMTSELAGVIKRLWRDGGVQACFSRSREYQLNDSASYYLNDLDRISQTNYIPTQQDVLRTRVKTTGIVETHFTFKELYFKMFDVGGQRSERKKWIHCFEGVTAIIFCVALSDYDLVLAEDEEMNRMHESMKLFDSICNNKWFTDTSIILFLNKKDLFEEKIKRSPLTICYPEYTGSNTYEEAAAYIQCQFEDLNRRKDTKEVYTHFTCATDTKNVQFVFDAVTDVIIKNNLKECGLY
HCMV NEC inh: inhibitors of HCMV UL50-UL53 interaction, biochemical, HTRF | 190,000 compounds, 0.15% hits | inhibition, % (concentration not given with the values) | normalized percent inhibition | HCMV UL50-UL53 nuclear egress complex (human cytomegalovirus) | AID 1918969, 2023;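 active = both replicates at 50% or more, plus weaker picks with an unusually low signal ratio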;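 also: stock transfer was 100 nL into about 20 µL; 0% = negative control wells and 100% = wells with untagged competitor protein; inactives centre near -12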
Sa growth 42C second temp: recorded beside Sa growth 42C, whose call it bears; relative growth, %; measured here: growth at 30 °C;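 optical density after 20 h as mean of two plates; 100% = untreated growth and lower means inhibition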
* marks the source's active call; other numbers are inactive results; nt = no result given; & = joins results of further samples.

SMILES	Sa growth 42C	Sa growth 42C second temp	GIV-Gai inh	HCMV NEC inh
COc1ccc(OC)c(/C=N/NC(=O)c2cn(C)c3ccccc23)c1	98	91	103	-4
c1ccc(-c2ccn(-c3ccccc3)n2)cc1	69	77	nt	0
Cc1cccc(NC(=O)Cn2c(=O)n(CCc3ccccc3)c(=O)c3ccccc32)c1	105	85	106	-16
Cc1ccc(C2=NNC(=O)C(P(=O)(c3ccccc3)c3ccccc3)C2)cc1 (stereo unspecified)	106	91	105	nt
CCCCNC(=O)CCCn1c(=O)c2ccccc2n(Cc2cccc(Cl)c2)c1=O	106	94	102	5
CC(=O)n1c(=O)oc2ccccc21	94	90	nt	-4
CC(=O)N1C(=Nc2ccccc2C)SCC1(C)C	97	100	nt	-19
CC1(C)CC(=O)CC(O)(C(F)(F)F)O1 (stereo unspecified)	88	80	104	-28
COc1ccc(C2=NN(S(=O)(=O)c3ccc(C)cc3)C(c3cccc([N+](=O)[O-])c3)C2)cc1OC (stereo unspecified)	nt	nt	106	-23
Cc1ccc(-n2nc(N3CCN(S(=O)(=O)c4cnc[nH]4)CC3)ccc2=O)cc1C	nt	nt	104	-53

Brought forward from above: 3 entries, then new ones.
SMILES	Sa growth 42C	Sa growth 42C second temp	GIV-Gai inh	HCMV NEC inh
CC1(C)CC(=O)CC(O)(C(F)(F)F)O1 (stereo unspecified)	88	80	104	-28
COc1ccc(C2=NN(S(=O)(=O)c3ccc(C)cc3)C(c3cccc([N+](=O)[O-])c3)C2)cc1OC (stereo unspecified)	nt	nt	106	-23
Cc1ccc(-n2nc(N3CCN(S(=O)(=O)c4cnc[nH]4)CC3)ccc2=O)cc1C	nt	nt	104	-53
CCOc1ccc(CCNc2ncnc3onc(-c4ccc(Cl)cc4)c23)cc1OCC	103	89	99&98	-30&-15
O=C(O)C1CSC(c2cccs2)=N1 (stereo unspecified)	85	86	103	-6
COC(=O)c1c(COc2ccccc2)n[nH]c1C	113	101	102	6
CCc1ccc(-c2cc(C)no2)cc1S(=O)(=O)N1CCC(c2ccccc2)C1 (stereo unspecified)	109	103	103	-27
CC(C)N=c1scc(-c2ccc(F)cc2)n1/N=C/c1ccc(O)cc1O	58	65	nt	-35
O=c1c2sccc2n2c(SCc3ccc(F)cc3)nnc2n1CC1CCCO1 (stereo unspecified)	nt	nt	100	7
COc1ccc2cc(C(=O)N3CCCCCC3)sc(=O)c2c1OC	96	95	97	nt
CCOC(=O)c1ccc2c(c1)C1C=CCC1C(c1ccccc1F)N2 (stereo unspecified)	nt	nt	115	-21
O=C1C2C3C=CC(C3)C2C(=O)N1CCN1C(=O)C2C3C=CC(C3)C2C1=O (stereo unspecified)	122	89	98	0
Cc1cc(C(=O)COC(=O)CSc2ncnc3sccc23)c(C)n1-c1ccc2c(c1)OCO2	96	87	nt	0
CC(=O)Oc1ccc2occ(-c3ccccc3)c2c1	86	81	101	-36
Cn1nc(-c2ccccc2)c(-c2nc3ccccc3n2C)c1-c1ccccc1	120	89	nt	7
C/C(N)=C(/C#N)C(=O)CSc1nnc(SCc2ccc(Cl)cc2)s1	113	81	nt	7
COc1ccc(-n2ncc3c(NCCCOC(C)C)ncnc32)cc1	102	89	102	nt
Cc1cccc(C(=O)NCc2cn3cccc(C)c3n2)c1	107&104	92&80	101&99	8&-12
Cc1ccc2c(c1)cc1c(=O)n(CC(=O)NCc3ccco3)nc(C)n12	130	87	101	-34
CCOC(=O)c1cc2n(n1)CC(C)(C(=O)NC1CCCCC1)N(c1cccc(Cl)c1)C2=O (stereo unspecified)	nt	nt	99	-25
COC(=O)c1ccccc1NC(=S)N(C)C	89	79	102	-20
O=C(Nc1cc2c(cc1C(=O)c1ccccc1Cl)OCCO2)c1ccccc1	103	103	114	6
Cc1cc(C(=O)C(=O)Nc2nnc(C(C)C)s2)c(C)n1-c1ccccc1	94	59	104	-4

Looked up by structure from above (seven):
SMILES	Sa growth 42C	Sa growth 42C second temp	GIV-Gai inh	HCMV NEC inh
C/C(N)=C(/C#N)C(=O)CSc1nnc(SCc2ccc(Cl)cc2)s1	113	81	nt	7
Cc1cc(C(=O)C(=O)Nc2nnc(C(C)C)s2)c(C)n1-c1ccccc1	94	59	104	-4
COC(=O)c1ccccc1NC(=S)N(C)C	89	79	102	-20
Cc1cccc(C(=O)NCc2cn3cccc(C)c3n2)c1	107&104	92&80	101&99	8&-12
Cc1ccc2c(c1)cc1c(=O)n(CC(=O)NCc3ccco3)nc(C)n12	130	87	101	-34
CC(=O)Oc1ccc2occ(-c3ccccc3)c2c1	86	81	101	-36
Cn1nc(-c2ccccc2)c(-c2nc3ccccc3n2C)c1-c1ccccc1	120	89	nt	7

Other records follow.
SMILES	Sa growth 42C	Sa growth 42C second temp	GIV-Gai inh	HCMV NEC inh
O=C1NC(c2ccccc2)C(c2ccccc2)N1 (stereo unspecified)	76	112	nt	-9
Cc1cc(C(=O)NCc2cc3ccccc3s2)nn1C	108	73	111	-3
O=C(NCc1ccco1)c1c(-c2ccccc2)c(-c2ccccc2)n[nH]c1=O	74	84	99	-42
CCc1ccc(C2C3=C(CCCC3=O)OC3=C2C(=O)CCC3)cc1	96	81	105	nt
CCOc1ccc(OC(=O)c2cccnc2)cc1	99	96	102	nt
Cn1c(C(C#N)(Cc2ccccc2)Cc2ccccc2)nc2ccccc21	110	89	nt	-12
Cc1ccc(NC(=O)CCn2c(=O)c3cccn3c3ccccc32)cc1C	97	93	96	-12
Cc1ccccc1OCC(=O)NCC(c1ccc(Br)cc1)c1c[nH]c2ccccc12 (stereo unspecified)	nt	nt	105	-11
Cc1ccc(CN2CCc3nc(N4CCN(c5ccccc5F)CC4)ncc3C2)cc1C	104	93	106	nt
Cc1cccc(-c2nc3c4ccccc4n(CC(=O)Nc4cc(F)ccc4F)c(=O)n3n2)c1	131	83	98	nt
CCOC(=O)c1c(C)n(C)c2c1cc(OC(C)=O)c1c2c(-c2ccccc2)nn1-c1ccccc1	nt	nt	106	0
CCCCOc1ccccc1Cn1c(=O)sc2ccccc21	104	87	101	-5
O=C(COC(=O)c1ccc2c(=O)n3c(nc2c1)CCCCC3)NC12CC3CC(CC(C3)C1)C2	92	99	nt	-11
CCc1nnc(SCc2cccc(F)c2)c2cc3sc(C)cc3n12	78	85	108	nt
COCCNC(=O)c1ccc(N2CC3CC(C2)c2cccc(=O)n2C3)c(NC(=O)c2cc3ccccc3oc2=O)c1 (stereo unspecified)	110	89	108	-84
CCCNCc1ccc(-c2ccccc2)o1	nt	nt	105	-21
CCCOC(=O)C1=C(C)NC2=C(C(=O)CC(c3ccc(OC)c(OC)c3)C2)C1c1cccc([N+](=O)[O-])c1 (stereo unspecified)	nt	nt	100	-19
Cc1cc(NC(=O)CCS(=O)(=O)c2nc(-c3ccccc3)cc(C(F)(F)F)n2)no1	116	100	112	-33
CCc1ccc(-n2c(=O)c3c4c(sc3n(CC(=O)N(C)C3CCCCC3)c2=O)CCC4)cc1	97	92	106	nt
Cn1cc(C(=O)N2CCC(C(N)=O)CC2)c2[nH]c(=O)n(-c3ccc(Cl)cc3)c(=O)c21	nt	nt	100	-27
O=C(C1CCC1)N1CCc2cc(S(=O)(=O)NCCc3ccccc3)ccc21	nt	nt	108	-4
Cc1ccc2occ(CC(=O)N(Cc3ccc(Cl)cc3)Cc3ccco3)c2c1	79	75	110	6
Cc1noc(-c2cc(S(=O)(=O)N3CCOCC3)c(C)s2)c1C	nt	nt	111	0
O=C1C2CCCC1CC(C(=O)N1CCN(c3ccccc3Cl)CC1)C2 (stereo unspecified)	90	89	nt	-21
O=S(=O)(c1ccc2c(c1)CCCC2)N1CCCC1c1ccc(F)cc1 (stereo unspecified)	nt	nt	101	-4
Cc1ccc(Cl)cc1-n1c(=O)cc(N2CCN(c3ccc(F)cc3)CC2)[nH]c1=O	104	89	95	nt
COC(=O)c1ccc(NC(=O)CN(C)Cc2cccc(F)c2)cc1	80	92	nt	2
CCOc1cc(C2C3=C(CC(C)(C)CC3=O)OC3=C2C(=O)CC(C)(C)C3)ccc1OCc1ccc(Cl)cc1Cl	nt	nt	96	-28
Cc1ccc(C2C3=C(NCCN=C3c3ccccc3)C(=O)N2c2ccccc2)cc1 (stereo unspecified)	nt	nt	105&91	-6
CCOCCCNCc1ccc(-c2ccc(OC)c(Cl)c2)o1	nt	nt	104	-29
N#CN(Cc1ccccc1Cl)Cc1ccccc1Cl	nt	nt	102	-2
CCN(c1ccc(NC(=O)CN(C)c2ccccc2)cc1)C(C)C	112	100	nt	8
CCOC(=O)c1cnc(SC2CCc3ccccc3C2=O)nc1N (stereo unspecified)	96	53	104	-14
Cc1ccc(NC(=O)c2cc3c([nH]c2=O)CC(C)(C)CC3=O)c(C)c1	90	89	103&99	-8&3
CCNC(=O)c1cc(-c2ccco2)nc2ccccc12	118	80	nt	-70
C=Cc1ccc(Cn2c(=O)n(CC3CCC(C(=O)NC(C)C)CC3)c(=O)c3sccc32)cc1 (stereo unspecified)	78	93	101	nt
Cc1csc2c(N3CC(C)OC(C)C3)ncnc12 (stereo unspecified)	90	90	106	-13
C=CCn1c(CCC(=O)OC)nc2ccccc21	106	93	106	3
CC(=O)c1ccc(NC(=O)CSc2nc(-c3ccccc3C)nc3c2c(=O)n(C)c(=O)n3C)cc1	99	103	105	nt
COCc1nc2ccc(C)cc2[nH]1	115	91	105	nt
CC(NC(=O)C1CCN(c2nc3ccccc3nc2C(F)(F)F)CC1)c1ccccc1 (stereo unspecified)	91	91	103&101	4
CCSc1nnc(NC(=O)c2sc(COc3cccc(C)c3)nc2C)s1	nt	nt	105	-5
CC(C)(C)c1ccc(CN(Cc2ccco2)Cc2nnnn2C2CCCCC2)cc1	100	83	101	-4
N#Cc1c[nH]n2c(NC3CCCC3)c(-c3ccc(Cl)cc3)nc12	112	77	101	0
CCN(CC)S(=O)(=O)c1cc(C(=O)Oc2ccc3c(c2)OCO3)ccc1C	44*	84*	nt	-2
Cc1cc(C)nc(NS(=O)(=O)c2ccc(NC(=O)c3ccccc3-c3ccc(C(F)(F)F)cc3)cc2)n1	nt	nt	99	-14
CN1CCN(C(=O)CN2c3ccc(F)cc3-c3ccccc3S2(=O)=O)CC1	nt	nt	105	-14
COc1ccc(-c2noc(N3CCC(C(=O)N4CCN(c5ccccc5F)CC4)CC3)n2)cc1	88	93	97&104	17&-7
O=C(NC1C=CS(=O)(=O)C1)c1sc2ccccc2c1Cl (stereo unspecified)	107	73	98	-13
O=C(Cc1ccc(Br)cc1)NN1CCOCC1	102	96	106	5
The results go on:
SMILES	Sa growth 42C	Sa growth 42C second temp	GIV-Gai inh	HCMV NEC inh
CCN(CC)c1nc(Nc2ccc(OC)c(Cl)c2)c2cnn(C)c2n1	85	50	101	2
CCC1(C)Cc2ccccc2-c2[nH]c(=S)[nH]c(=O)c21 (stereo unspecified)	112	73	95	-21
Cc1cc(C(=O)CSc2nc3ccccc3n2C)c(C)n1C	72	84	nt	-31
O=C(COC(=O)c1cc2c(s1)CCC2)Nc1nccs1	91	84	nt	-20
CSc1c(C#N)c(-c2ccco2)nn1C	98	84	105	-9
CCSCCOC(=O)C1=C(C)NC(=O)NC1c1cc2c(cc1Br)OCO2 (stereo unspecified)	nt	nt	110	-16
CN(C)/C=C1/C=C(c2ccccc2)N(C)C1=S	58	79	96	nt
COc1ccc(C(=O)Nc2nccs2)c(OC)c1	76	69	104	-19
Oc1c(C(c2ccccc2)N2CCN(c3ccccc3)CC2)sc2nc(-c3ccco3)nn12 (stereo unspecified)	105	100	95	nt
Cc1ccc(N2CC(NC(=O)c3ccc4c(c3)OCO4)CC2=O)cc1 (stereo unspecified)	113	88	100	nt
CC1Cc2cc(S(=O)(=O)CCC(=O)N3CCn4c3nc3ccccc34)ccc2N1C(=O)C1CC1 (stereo unspecified)	nt	nt	106	-3
CCc1ccccc1NC(=O)CN(C)C(=O)Cn1nnc2ccccc2c1=O	87	98	nt	-39
O=C(c1ccccc1)c1ccc(Cl)s1	92	87	109	-33
COc1ccc(Cl)cc1NC(=O)N1Cc2cccn2-c2ccccc21	nt	nt	101	2
CC(=O)N(c1ccc2oc3c(c2c1)CCCC3)S(=O)(=O)c1cccs1	73	75	103	-26
CCCCCCNC(=O)n1cc(F)c(=O)[nH]c1=O	1.1*	-0.2*	nt	4&-93
Cc1ccc(-c2ccc(C(=O)O)cc2)cc1	58	88	nt	-21
CCc1ccc(-c2[nH]nc3nc(-c4cc(OC)ccc4OC)cc(C(=O)O)c23)cc1	123	96	103	nt
COc1ccc(S(=O)(=O)N2CCC(NC(=O)NCCCO)CC2)cc1	77	83	98	-20
COC(=O)C1=C(C)NC(C)=C(C(=O)OCCSc2ccccc2)C1C (stereo unspecified)	nt	nt	101	-2&-16&0
CCOCCOC(=O)c1ccc2c(c1)N(Cc1ccc(F)cc1)C(=O)c1ccccc1S2	nt	nt	97	3
CC(C)(C)c1ccc(-c2nnn(-c3ccccc3)n2)cc1	103	93	108	5
O=S1(=O)Cc2snnc2-c2cc(Cl)ccc21	24	28	108	-18
COc1ccccc1-c1cc2nc(C)c(CCC(=O)Nc3ccc(Br)c(C)c3)c(C)n2n1	104	98	102	-32
